# Screens as filed in PubChem.
# INS promoter inh: TRM-6 insulin promoter activity inhibition | TRM-6 cells (human fetal islet line), insulin promoter-eGFP reporter, imaging; reporter expression induced with tamoxifen | inhibition, % at 2 µM | 130,000 tested, 0.9% active;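 active means inhibition above the mean plus 3 SD, with well images judged a real hit on visual review, cut at about 60% in these data, passing the limit was not always enough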
# GALR2 agonist: activates the human galanin receptor 2; 140,000 tested, 0.48% active; activation, %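 (tested at 5 µM)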; O43603; GALR2-expressing cells, agonist activation read-out;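 active means above mean plus 3 SD of all compounds, about 5% in these data, not always enough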;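 further: 0% = vehicle buffer wells and 100% = reference agonist at full effect; tested in CHO reporter cells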
# Target sequence (O43603 whole entry, looked up): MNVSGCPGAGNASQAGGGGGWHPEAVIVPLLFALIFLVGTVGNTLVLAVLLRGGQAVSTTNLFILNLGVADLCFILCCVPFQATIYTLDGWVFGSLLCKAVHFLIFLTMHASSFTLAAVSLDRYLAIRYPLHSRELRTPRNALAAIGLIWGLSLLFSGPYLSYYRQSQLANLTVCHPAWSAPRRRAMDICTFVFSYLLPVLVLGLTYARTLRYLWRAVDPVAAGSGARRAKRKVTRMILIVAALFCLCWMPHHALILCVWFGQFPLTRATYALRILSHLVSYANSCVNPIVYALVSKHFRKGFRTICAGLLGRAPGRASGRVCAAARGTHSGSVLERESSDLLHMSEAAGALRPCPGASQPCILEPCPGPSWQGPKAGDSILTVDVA
# HSV augment: HSV replication enhancement. AID 1956. maximum fold increase. HSV replication augmentation in cells, fold increase. 220,000 tested, 0.005% active;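 active means peak rise of 1.5-fold or more in the series; tested in PC3 cells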;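 further: first round at 10 µM; read as green reporter fluorescence; hits show the peak of a series up to 25 µM; 1 = signal of infected wells without compound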
# RGS16-Gao: modulates binding between human RGS16 and Galphao. O15492+P09471. bead-based flow cytometry RGS16-Galphao binding, fluorescence; actives lie on both sides. binding response (% of control), % at 10 µM. 220,000 tested, 0.38% active. AID 1441;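 active means below 25% or above 175%, edge rows of some plates excepted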;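 further: Galphao activated by GDP with aluminum fluoride before binding; 100% = wells without compound and 0% = beads without RGS; some results beyond the cut were filed as inactive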
# Target sequence (O15492 whole entry, looked up): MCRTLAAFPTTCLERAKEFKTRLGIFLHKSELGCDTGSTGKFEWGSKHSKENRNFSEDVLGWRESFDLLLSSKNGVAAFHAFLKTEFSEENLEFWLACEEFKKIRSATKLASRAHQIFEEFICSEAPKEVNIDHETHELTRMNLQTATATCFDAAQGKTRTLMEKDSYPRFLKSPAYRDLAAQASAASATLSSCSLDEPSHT
# Target sequence (P09471 whole entry, looked up): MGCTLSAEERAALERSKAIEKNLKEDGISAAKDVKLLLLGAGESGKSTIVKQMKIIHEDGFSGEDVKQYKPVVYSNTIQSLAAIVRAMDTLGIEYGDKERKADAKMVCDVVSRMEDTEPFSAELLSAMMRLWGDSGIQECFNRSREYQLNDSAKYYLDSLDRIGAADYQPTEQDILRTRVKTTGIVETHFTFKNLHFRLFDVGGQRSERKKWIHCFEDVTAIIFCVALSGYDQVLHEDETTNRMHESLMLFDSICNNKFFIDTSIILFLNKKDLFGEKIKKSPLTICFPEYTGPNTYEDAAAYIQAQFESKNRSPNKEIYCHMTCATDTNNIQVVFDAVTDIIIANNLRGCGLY
# PKD1 kinase inh: PKD1 (human) kinase inhibition. Q15139. PKD1 kinase fluorescence polarization assay. inhibition, %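 (about 10 µM by stock and volumes)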. 200,000 tested, 0.056% active. AID 797;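 active means inhibition of 50% or more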;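 further: controls were vehicle for no effect and a reference inhibitor for full effect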
# INS promoter inh cell count: further read-out of INS promoter inh, marked with its call; normalized cell count, %; measured here: cell count, toxicity; reference of the scale not given here;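 cells exposed to compound for 48 h; stained nuclei by imaging scaled within each plate; lower means fewer cells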
# HSV augment primary fold: also measured in HSV augment; calls as there; fold increase; compound at 10 µM; measured here: primary screen fold increase 10 uM; tested in PC3 cells;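 GFP signal in the first replicate; 1 = infected wells without compound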
# Starred values were filed as active, the others as inactive; i = inactive; . = not tested or not shown.
# Sequence of screens – HSV augment	HSV augment primary fold	PKD1 kinase inh	INS promoter inh	GALR2 agonist	RGS16-Gao	INS promoter inh cell count
- O=C(c1ccc(-c2cc3ccccc3oc2=O)cc1)N1CCN(c2ccc(Cl)cc2[N+](=O)[O-])CC1
 : i	0.99	-1	.	-1.8	95	.
- N#Cc1cccn1-c1nccc(-c2cccs2)n1
 : i	0.85	-10	.	.	99	.
- C=CCn1c(C)cc(C(=O)COc2ncnc3sccc23)c1C
 : i	1	5	.	-1.0	99	.
- Cc1oc2c(O)c(O)ccc2c(=O)c1-c1cnn(-c2ccccc2)c1
 : i	0.84	22	.	-0.9	35	.
- CC1=NN(C(N)=S)C(=O)C1N=Nc1ccc(C)cc1C (stereo not drawn)
 : .	.	-7	-27	0.2	101	83
- O=C(O)CCCNc1ccc([N+](=O)[O-])c(NCCCC(=O)O)n1
 : i	0.99	-7	-52	.	111	127
- Cc1ccc(-c2csc3ncn(CC(=O)N4CCOCC4)c(=O)c23)cc1C
 : i	1	-6	-11	0.4	97	153
- Cc1ccc(OCCNC(=O)/C=C/c2ccco2)cc1C
 : i	1.2	-4	.	.	98	.
- Cn1cc(S(=O)(=O)CC(=O)Nc2ccc(Br)cc2)c2ccccc21
 : i	0.93	-8	.	-1.5	101	.
- CC(C)CC(C(=O)OCC(=O)Nc1cccc(Cl)c1)N1C(=O)C2CC=CCC2C1=O (stereo not drawn)
 : i	1.2	9	.	-0.9	103	.
- Cc1cccc(Cc2nnc(CCC(=O)N3CCCCC3c3nccs3)o2)c1 (stereo not drawn)
 : i	0.98	-1	.	.	103	.
- Cc1cc(=O)[nH]c(NN=C2CCC(C(C)(C)C)CC2)n1 (stereo not drawn)
 : i	1.1	6	.	.	99	.
- O=C(CCc1nnc(CCC2CCCCC2)o1)NCCc1ccccn1
 : i	0.94	3	.	.	96	.
- CCc1ccc2c(c1)CCCN2C(=O)c1ccccc1C(=O)O
 : i	1.1	-4	.	-2.6	100	.
- Cc1ccc(C(=O)N2C3C=CC(C3)C2(C(F)(F)F)C(F)(F)F)cc1 (stereo not drawn)
 : i	1.1	-9	40	-1.4	98	160
- O=C(NCCN1CCOCC1)c1ccccc1[N+](=O)[O-]
 : i	1.1	2	.	-2.7	125	.
- COc1ccccc1N/C=C/C(=C(C#N)C#N)N(C)C
 : i	0.9	7	.	.	96	.
- O=C(CN1CCN(Cc2ccccc2)CC1)NC(c1ccccc1)c1ccccc1
 : i	1.1	.	.	.	107	.
- Cc1cc(C(=O)CN2CCCCC2)c(C)n1-c1ccc(F)cc1
 : i	1	-4	.	0.3	111	.
- O=C(COc1ncnc2cc(Cl)ccc12)c1ccc2c(c1)OCCO2
 : i	0.97	.	.	.	98	.
- COC(=O)c1cn(Cc2c(C)cc(C)cc2C)nn1
 : i	1.1	-7	.	-0.2	108	.
- COc1ccc2o/c(=N\O)c(C(=O)Nc3ccc(C)cc3)cc2c1
 : i	0.75	-2	43	.	95	125
- N#Cc1c2n(c(=S)n(-c3ccccc3)c1=O)CCCCC2
 : i	0.92	-10	-53	.	102	61
- CCOC(=O)N1CCC(NC(=O)c2ccc3c(c2)sc2nc(-c4ccc(OC)cc4)cn23)CC1
 : .	.	-5	30	-2.2	104	73
- O=C(O)C1C2C=CC(C2)C1C(=O)Nc1ccc(C(=O)N2CCCCC2)c(Cl)c1 (stereo not drawn)
 : i	0.87	4	9	0.4	97	183
- COc1ccc(-c2csc(C)n2)cc1
 : i	0.85	-9	67	-2.0	97	192
- CC1=C(C(=O)OC(C)C)C(c2c(O)ccc3ccccc23)NC(=O)N1 (stereo not drawn)
 : i	0.98	5	.	-2.2	101	.
- COc1ccc(C(=O)NCc2cn3c(C)csc3n2)cc1OC
 : i	0.97	-7	.	-1.1	118	.
- COc1cccc(-c2nnc(SCN3C(=O)c4ccccc4C3=O)n2C)c1
 : i	1.1	-9	14	0.3	106	149
- COc1ccc(NC(=O)c2nn(C)c(=O)c3ccccc23)cc1S(=O)(=O)Nc1ccccc1Cl
 : i	1	-5	7	.	102	119
- O=C(CCN1C(=O)c2ccccc2S1(=O)=O)N1CCN(c2ccccc2)CC1
 : i	1.1	-8	.	-0.8	100	.
- O=C(NCC1OCCc2ccccc21)c1ccc(NC(=O)c2ccc(Cl)cc2)cc1 (stereo not drawn)
 : i	0.73	11	6	1.1	101	160
- Cn1c(SCC(=O)Nc2ccc(F)cc2)nnc1-c1cccnc1
 : i	0.94	-2	.	-0.1	99	.
- C[n+]1c2n(c3ccccc31)N=C(c1ccc(Br)cc1)CS2
 : i	0.9	-6	.	-1.5	98	.
- COc1ccc2c(c1OC)C(=O)OC2Nc1nc(-c2ccc(-c3ccccc3)cc2)cs1 (stereo not drawn)
 : i	0.97	-2	-11	-0.3	97	85
- COc1cc(OC)c(NC(=O)CCc2ccccc2)cc1Cl
 : i	0.95	-1	-7	-0.7	103	91
- COC(=O)c1c(C)[nH]c(C(=O)COC(=O)Cc2ccc3c(c2)OCCO3)c1C
 : i	0.84	-3	9	-2.1	100	82
- CCOC(=O)N1CCN(C(=O)c2cn(C)c3ccc(S(=O)(=O)N4CCC(C)CC4)cc3c2=O)CC1
 : .	.	-2	29	.	113	65
- Cc1nnc(SCC(=O)NNC(=O)c2ccco2)n1-c1ccccc1
 : i	1	3	.	.	115	.
- Cn1c(CNc2ccccn2)c(C#N)c2ccccc21
 : i	0.78	-8	-167	-2.2	95	68
- COc1ccc(C2C(C(N)=O)=C(C)Nc3nc(-c4ccccc4Cl)nn32)c(OC)c1 (stereo not drawn)
 : i	0.92	-4	.	-1.2	109	.
- CC(/C=C/c1ccccc1)=N/NC(=O)c1cc([N+](=O)[O-])cc([N+](=O)[O-])c1
 : i	0.66	8	28	0.3	105	105
- COC(=O)[C@@]1(Cc2ccc(F)cc2)[C@H]2c3cc(C(=O)N(C)C)n(Cc4ccc(OC)c(OC)c4)c3C[C@H]2CN1C(=O)c1ccccc1
 : i	0.7	-15	-50	-0.6	101	128
- O=C(NCc1ccco1)C(c1cccnc1)N(C(=O)Cn1nnc2ccccc21)c1ccccc1 (stereo not drawn)
 : i	1	-2	.	0.5	105	.
- COc1cc(C2C3=C(Nc4ncnn42)c2ccccc2CC3)cc(OC)c1OC (stereo not drawn)
 : i	0.53	-7	-257	5.0*	95	19
- Cc1ccccc1-c1nnn(CC(=O)Nc2ccc3c(c2)OCCO3)n1
 : i	1.1	6	36	.	103	125
- CCN(CC)c1ccc(/C=N/NC(=O)c2ccc3nc[nH]c3c2)cc1
 : i	0.74	.	.	.	92	.
- S=C(NCCSCc1ccc(Cl)cc1Cl)Nc1ccccc1
 : i	0.92	-1	10	-0.2	102	106
- CCOc1ccc2ccccc2c1/C=N/NC(=O)CNC(=O)Cc1ccccc1
 : i	0.99	2	23	1.5	104	127
- CC(NC(=O)c1ccccc1)C(c1cccs1)N1CCOCC1 (stereo not drawn)
 : i	0.86	-10	.	-0.7	102	.

# Next part.
# Sequence of screens – HSV augment	HSV augment primary fold	PKD1 kinase inh	INS promoter inh	GALR2 agonist	RGS16-Gao	INS promoter inh cell count
- O=c1c(Cl)c(N2CCN(S(=O)(=O)c3ccc(F)cc3)CC2)cnn1-c1cccc(Cl)c1
 : i	0.88	-7	3	-1.1	94	82
- Clc1cccc(CSc2nnc(-c3sccc3-n3cccc3)o2)c1
 : i	0.99	-5	-5	-0.9	104	104
- Cc1ccc(CNc2cc(-c3nn4c(C)nnc4s3)ccc2C)s1
 : i	0.9	-5	-7	-0.1	101	98
- COC(=O)C1=C(C)N=C2SCCC(=O)N2C1c1ccc(C(=O)OC)cc1 (stereo not drawn)
 : i	0.98	-11	23	-1.4	112	89
- Fc1ccccc1/C=N/Nc1nc(-c2ccccn2)nc2ccccc12
 : i	0.68	.	.	.	105	.
- Cc1nc2nc[nH]n2c(=O)c1NS(=O)(=O)c1ccc(F)cc1
 : i	1.1	4	.	.	97	.
- Cc1ccccc1C(=O)Nc1ccccc1C(=O)N/N=C\c1ccco1
 : i	0.83	12	.	-3.3	105	.
- O=C(CSc1nc2cccnc2n1Cc1ccccc1)NC1CCCCC1
 : i	0.99	-15	-47	-2.4	96	148
- COc1cccc(/C=N/NC(=S)NCc2ccco2)c1OC
 : i	0.95	.	.	.	101	.
- CCN(CC)C(=O)c1cc(Cl)ccc1NC(=O)c1ccco1
 : i	0.99	.	.	.	107	.
- N#C/C(=N/Nc1ccc([N+](=O)[O-])cc1)C(=N)N1CCCCC1
 : i	0.96	-3	6	.	102	83
- COC(=O)Cc1cc(=O)n2[nH]c(SC)nc2n1
 : i	1.1	4	-17	0.5	103	127
- O=C(Nc1ccc2c(c1)OCO2)N1CCN(S(=O)(=O)c2ccc(Cl)cc2)CC1
 : i	0.86	-6	.	-1.0	86	.
- N#Cc1nc(COc2ccc(Cl)cc2Cl)oc1N1CCOCC1
 : i	0.69	-11	43	-0.4	102	136
- COCCN1C(=O)c2oc3ccccc3c(=O)c2C1c1ccc(O)c(OC)c1 (stereo not drawn)
 : i	1	-6	.	-1.4	106	.
- NC(=O)C1CCN(C(=O)CSc2nc3ccccc3s2)CC1
 : i	0.93	-3	-7	-2.7	98	119
- O=C(NCc1cccnc1)c1cc(-c2ccccc2)on1
 : i	0.87	1	0	-1.7	99	152
- CC(=O)C1=C(O)CC(c2ccccc2)CC1=NCCc1c(C)[nH]c2ccccc12 (stereo not drawn)
 : i	0.91	8	-66	-0.2	83	124
- Clc1ccccc1CN1CCC(Cc2ccccc2)CC1
 : i	1.1	-1	.	2.3	105	.
- Cc1ccc(C(=O)NNC(=O)CSc2nnc(-c3ccccc3)n2Cc2ccccc2)cc1
 : i	0.87	1	7	0.6	111	82
- Cc1ccc(C(=O)NCC2CCCO2)cc1[N+](=O)[O-] (stereo not drawn)
 : i	1	5	3	-1.3	68	147
- CC1CN(S(=O)(=O)c2cccc(C(F)(F)F)c2)CC(C)O1 (stereo not drawn)
 : i	0.88	.	.	.	102	.
- COc1cc(NC(=O)SC2=NCCS2)cc(OC)c1
 : i	0.95	.	.	.	47	.
- COc1cccc(-n2nnnc2SCC(=O)c2cc(OC)ccc2OC)c1
 : i	0.91	-3	-7	-1.7	99	31
- COc1ccc(C(C)=O)cc1CSc1nncn1C
 : i	1	-4	0	.	103	140
- COC(=O)c1ccc(C(=O)OC)c(NC(=O)CSCc2ccc(Cl)cc2)c1
 : i	1	4	3	-3.9	100	125
- Cc1c(C#N)sc(C(N)=O)c1C
 : i	1	0	.	.	102	.
- Cc1ccccc1NS(=O)(=O)c1ccc(F)cc1
 : i	0.79	-11	38	-2.1	100	182
- COc1ccc(Nc2nc(N)nc(SCc3nnc(C)s3)n2)cc1
 : i	1	-3	10	-3.0	101	114
- COc1ccc(-c2nnc(SCC(=O)/C(C#N)=C(\C)N)o2)cc1
 : i	0.97	-1	.	-1.7	99	.
- COc1cc(-c2nn3c(Cc4ccccc4)nnc3s2)cc(OC)c1OC
 : i	1.1	-8	-18	0.9	96	71
- COCCNC(=O)C(C)OC(=O)c1cc2occc2n1C (stereo not drawn)
 : i	1.1	-4	.	-1.1	99	.
- COc1cccc(-c2nnc(SCC(=O)Nc3cc(C)ccc3OC)n2N)c1
 : i	0.77	-3	.	-2.8	108	.
- COc1cccc(NC(=O)C(NCCC(C)C)c2ccccc2)c1 (stereo not drawn)
 : i	0.85	-6	-3	-0.7	105	134
- CCCc1ccc(Oc2cc(C)nc(N3CCOCC3)n2)cc1
 : i	0.99	-6	-2	-0.7	98	76
- COC(=O)COc1ccc(S(=O)(=O)Nc2ccccc2C(=O)OC)cc1
 : i	0.83	14	-31	-0.8	108	112
- Cc1cc(NC(=O)COn2nnc3ccc(Cl)cc32)no1
 : i	0.89	-4	-52	-0.9	103	50
- CCOC(=O)c1c(/N=C/c2ccc(C)cc2O)sc2c1CCN(C)C2
 : i	0.97	.	.	.	94	.

# Exported tab-delimited: entries from further up.
SMILES	HSV augment	HSV augment primary fold	PKD1 kinase inh	INS promoter inh	GALR2 agonist	RGS16-Gao	INS promoter inh cell count
O=C(NCCN1CCOCC1)c1ccccc1[N+](=O)[O-]	i	1.1	2	.	-2.7	125	.
COc1ccccc1N/C=C/C(=C(C#N)C#N)N(C)C	i	0.9	7	.	.	96	.
O=C(CN1CCN(Cc2ccccc2)CC1)NC(c1ccccc1)c1ccccc1	i	1.1	.	.	.	107	.
Cc1cc(C(=O)CN2CCCCC2)c(C)n1-c1ccc(F)cc1	i	1	-4	.	0.3	111	.
O=C(COc1ncnc2cc(Cl)ccc12)c1ccc2c(c1)OCCO2	i	0.97	.	.	.	98	.

# Compound profiles, from the list above. Order of values: HSV augment, HSV augment primary fold, PKD1 kinase inh, INS promoter inh, GALR2 agonist, RGS16-Gao, INS promoter inh cell count
# `COCCNC(=O)C(C)OC(=O)c1cc2occc2n1C` (stereo not drawn) reads i, 1.1, -4, ., -1.1, 99, .
# `CCOC(=O)c1c(/N=C/c2ccc(C)cc2O)sc2c1CCN(C)C2` reads i, 0.97, ., ., ., 94, .
